Source: PubChem BioAssay (several laboratories)
SRC1 inh: human NCOA1 inhibition; HEK293 GAL4-SRC1 luciferase reporter, luminescence; Q15788; 0.12% of 360,000 active; AID 588354; inhibition, % at 3.6 µM;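 active means inhibition above the campaign mean plus 3 SD, with each screening campaign given its own cutoff, cut at about 60% in these data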;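 further: 0% = DMSO treated cells and 100% = gossypol at 36 µM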
Vif inh: inhibitors of HIV Vif | 0.35% of 340,000 active | AID 602346 | HEK293T cells, Vif self-association by quenched fluorescence, imaging, 24 h | inhibition, % at 7.49 µM; in the data active means inhibition above about 50%, passing the limit was not always enough; further: some results filed as inactive read as strong as hits
NR5A2 inv ag: suppresses constitutive activity of human LRH-1; O00482; HEK293T StAR-luciferase reporter, LRH-1 transfected, 24 h; inhibition, % at 3.6 µM; 0.13% of 360,000 active; AID 602396;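 active means inhibition above the mean inhibition of all tested compounds plus 3 SD, cut at about 73% in these data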;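 further: 0% = DMSO wells and 100% = reporter-only cells lacking LRH-1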
Target sequence (O00482 whole entry, looked up): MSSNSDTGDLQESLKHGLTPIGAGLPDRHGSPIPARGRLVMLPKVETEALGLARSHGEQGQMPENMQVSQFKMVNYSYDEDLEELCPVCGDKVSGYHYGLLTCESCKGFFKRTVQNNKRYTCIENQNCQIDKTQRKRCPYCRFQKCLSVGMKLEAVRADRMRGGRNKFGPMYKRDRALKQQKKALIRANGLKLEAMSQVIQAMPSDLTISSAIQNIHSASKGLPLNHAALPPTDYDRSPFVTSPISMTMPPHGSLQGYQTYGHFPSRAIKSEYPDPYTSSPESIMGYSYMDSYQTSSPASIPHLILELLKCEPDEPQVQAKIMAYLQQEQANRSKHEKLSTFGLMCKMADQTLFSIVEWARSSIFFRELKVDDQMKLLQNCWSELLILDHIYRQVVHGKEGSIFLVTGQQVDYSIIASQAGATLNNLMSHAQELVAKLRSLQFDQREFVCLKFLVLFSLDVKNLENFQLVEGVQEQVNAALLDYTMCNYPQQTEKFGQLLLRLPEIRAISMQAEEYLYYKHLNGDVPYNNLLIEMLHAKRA
C8 TRAIL sens: sensitizes caspase-8 expressing cells to TRAIL; inhibition (viability loss, TRAIL sensitization), % at 10 µM; 1% of 360,000 active; NB7+C8 cells + TRAIL, ATPlite viability luminescence;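 active means compounds causing at least 50% loss of cell viability in the single-dose screen, relative to plate controls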
NOD2 RIPK2 PPI: NOD2-RIPK2 protein interaction inhibition; inhibition, % at 4.98 µM; O43353; CHO BLA complementation NOD2-RIPK2, CCF4 ratio; 0.38% of 360,000 active; in the data active means inhibition above about 21%;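 further: 0% = vehicle only and 100% = reference blocker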
Target sequence (O43353 whole entry, looked up): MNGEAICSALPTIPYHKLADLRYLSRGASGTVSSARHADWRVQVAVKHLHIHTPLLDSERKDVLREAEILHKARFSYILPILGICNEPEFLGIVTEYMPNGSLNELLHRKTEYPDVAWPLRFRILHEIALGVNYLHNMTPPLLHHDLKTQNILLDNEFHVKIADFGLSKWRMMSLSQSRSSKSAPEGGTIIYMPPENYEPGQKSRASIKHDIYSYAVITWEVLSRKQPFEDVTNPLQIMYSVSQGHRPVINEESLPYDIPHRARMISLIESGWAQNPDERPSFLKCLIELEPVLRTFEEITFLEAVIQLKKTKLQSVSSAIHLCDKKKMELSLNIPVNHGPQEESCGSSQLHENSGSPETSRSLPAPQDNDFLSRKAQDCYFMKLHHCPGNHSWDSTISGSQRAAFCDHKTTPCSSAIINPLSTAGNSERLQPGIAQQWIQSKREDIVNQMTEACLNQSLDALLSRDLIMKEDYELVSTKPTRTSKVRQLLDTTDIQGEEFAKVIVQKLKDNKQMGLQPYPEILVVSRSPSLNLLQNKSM
NCOA3 inh: inhibitors of human steroid receptor coactivator 3 (SRC3); HEK293 GAL4-SRC3 luciferase reporter, luminescence; 0.17% of 360,000 active; inhibition, % at 3.6 µM;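 active means inhibition above a per-campaign cutoff, the mean of all compounds plus 3 SD, cut at about 60% in these data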;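 further: 0% = DMSO-treated cells and 100% = gossypol-treated cells at 36 µM; higher means less SRC3-driven luciferase light from the GAL4 reporter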
TLR9-MyD88 inh: TLR9-MyD88 interaction inhibition; Q9NR96+Q99836; CHO BLA complementation TLR9-MyD88, CCF4 FRET ratio; inhibition, % at 4.98 µM; 0.21% of 340,000 active; AID 504734;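 active means inhibition above the mean over all tested compounds plus 3 SD, cut at about 21% in these data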;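 further: 0% = DMSO only wells and 100% = clavulanate BLA inhibitor control wells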
COUP-TFII inh: NR2F2 (human) inhibition, primary screen | inhibition, % at 8.6 µM | AID 686940 | HEK293T NGFI-A luciferase reporter, luminescence | 0.7% of 370,000 active | P24468;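 active means inhibition above a per-plate cutoff, mean inhibition of test wells between control levels plus 3 SD, cut at about 38% in these data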;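 further: cells cotransfected with COUP-TFII expression vector driving the NGFI-A reporter; 0% = median of COUP-TF2 test wells and 100% = reporter-only cells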
SRC2 inh: human SRC2 (NCOA2) inhibition; AID 651957; 0.17% of 370,000 active; inhibition, % at 9 µM; Q15596; HEK293 GAL4-SRC2 luciferase reporter, luminescence;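 active means inhibition above the mean inhibition of all tested compounds plus 3 SD, set per campaign, cut at about 52% in these data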;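 further: 0% = DMSO treated cells and 100% = cells given Gossypol at 36 µM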
TROY NFkB inh: inhibitors of TROY-dependent NF-kB signaling | 0.98% of 360,000 active | Q293 LMP1-TROYcd NF-kB luciferase reporter, 4 h | inhibition, % at 10 µM | AID 1347056;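 active means compounds whose plate-normalised and pattern-corrected inhibition of the luciferase reporter signal at the single screening dose is 50% or more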
* = called active by the depositor; / = not tested or not shown; & = joins results of further samples.

SMILES	SRC1 inh	Vif inh	NR5A2 inv ag	C8 TRAIL sens	NOD2 RIPK2 PPI	NCOA3 inh	TLR9-MyD88 inh	COUP-TFII inh	SRC2 inh	TROY NFkB inh
COc1ccc(NC(=O)NCCN2CCc3ccccc3C2)cc1	-13	3	6	-6	-4	-9	-4	-9	-13	-21
CN1C2CCC1CC(OC(=O)c1c[nH]c3ccccc13)C2 (centres undefined)	-6&-2	11	-5&2	4&-2	-7&13	-32&-34	2&3	9&-14	-15&-36	-8&-12
Cc1ccc(C(=O)NCC(=O)N(C)Cc2cccc(F)c2)s1	8	-8	-5	16	-8	7	10	3	-19	-9
CCS(=O)(=O)c1nnnn1-c1ccccc1S(C)(=O)=O	7	31	16	-18	-6	5	2	-6	16	1
Cc1onc(-c2c(Cl)cccc2Cl)c1C(=O)N[C@@H]1C(=O)N2[C@@H]1SC(C)(C)[C@@H]2C(=O)O	-5&5	0&-10	10&-5	-2&0	-6&2	-1&6	-5&-11	15&-7	-1&-5	4&-1
Cc1sc2ncnc(N/N=C/c3ccccc3O)c2c1C	-9	3	-13	41	5	19	12	10	19	-57
Cc1ccccc1C(=O)c1c[nH]c(C(=O)NCc2ccco2)c1	0	-6	-13	14	-5	-7	-5	7	7	-7
O=C(/C=C/Nc1ccc(F)cc1Br)c1ccccc1	-13	-6	-41	95*	4	3	0	14	16	77*
Cc1ccc(C)c(N2CCN(S(=O)(=O)c3ccc4c(c3)CCN4C(=O)CCC(=O)O)CC2)c1	1	0	-3	-7	3	3	8	15	0	0
CNC(=O)C1=NCCCc2cc(OC)c(OC)cc21	-9	0	0	5	11	3	0	7	-1	29
COc1ccc(C(NC(C)=O)c2cc(Cl)c3cccnc3c2O)cc1 (centres undefined)	20	0	36	20	-2	25	-3	7	2	23
COc1c(S(=O)(=O)N2CCN(c3ccc(F)cc3)CC2)ccc(Cl)c1Cl	-6	-21	16	-7	-9	-3	-1	23	13	15
CC(C)c1ccc(OCc2cccc(C(=O)N/N=C/c3cccnc3)c2)cc1	-183	2	-271	53*	14	-118	0	-44	-32	-7
COc1ncnc2sc(-c3ccccc3)cc12	-76	/	-52	-1	-11	-51	1	-50	-48	-43
Cn1c(CC(=O)Nc2ccc(F)cc2)nnc1SCC(=O)Nc1nncs1	6	5	16	2	-8	4	-7	-16	0	-11

A different layout for some results above:
Results follow in this order: SRC1 inh, Vif inh, NR5A2 inv ag, C8 TRAIL sens, NOD2 RIPK2 PPI, NCOA3 inh, TLR9-MyD88 inh, COUP-TFII inh, SRC2 inh, TROY NFkB inh
- Cc1ccc(C)c(N2CCN(S(=O)(=O)c3ccc4c(c3)CCN4C(=O)CCC(=O)O)CC2)c1
→ 1, 0, -3, -7, 3, 3, 8, 15, 0, 0
- Cc1ccc(C(=O)NCC(=O)N(C)Cc2cccc(F)c2)s1
→ 8, -8, -5, 16, -8, 7, 10, 3, -19, -9

Complete entries from above. Screens in order: SRC1 inh, Vif inh, NR5A2 inv ag, C8 TRAIL sens, NOD2 RIPK2 PPI, NCOA3 inh, TLR9-MyD88 inh, COUP-TFII inh, SRC2 inh, TROY NFkB inh
Cc1ccc(C(=O)NCC(=O)N(C)Cc2cccc(F)c2)s1 is listed as 8, -8, -5, 16, -8, 7, 10, 3, -19, -9
Cc1ccccc1C(=O)c1c[nH]c(C(=O)NCc2ccco2)c1 is listed as 0, -6, -13, 14, -5, -7, -5, 7, 7, -7
Cn1c(CC(=O)Nc2ccc(F)cc2)nnc1SCC(=O)Nc1nncs1 is listed as 6, 5, 16, 2, -8, 4, -7, -16, 0, -11

More structures
SMILES	SRC1 inh	Vif inh	NR5A2 inv ag	C8 TRAIL sens	NOD2 RIPK2 PPI	NCOA3 inh	TLR9-MyD88 inh	COUP-TFII inh	SRC2 inh	TROY NFkB inh
O=C(/C=C/Nc1ccc(Br)cc1F)c1ccccc1	5	-3	-27	94*	7	23	-8	2	-30	76*
O=C(Nc1ccc(Cl)cc1)c1ccco1	-44	11	-71	3	7	-73	-15	-11	-65	-32
O=C1CCCN2N=C(SCC(=O)Nc3ccc(Br)cc3)SC2=N1	-7	59*	41	-16	-12	8	1	5	10	-5
CC(CNC1CCCCC1)OC(=O)c1ccccc1 (centres undefined)	-21	-1	-23	-9	3	7	-3	-1	-19	-5
COC(=O)c1sc(NC(=O)c2ccc(OC)cc2OC)nc1C	-54	-10	-92	82*	-6	-55	-11	-50	-63	67*
CC(C)NCC(O)COc1cccc2ccccc12 (centres undefined)	6	-9	46	-7	-7	-2	11	-32	3	-2
CCCCCc1ccc(-c2ccc(/C=C/C(=O)O)cc2)nc1	-47	-2	-92	82*	-2	6	-9	20	35	-31
O=[N+]([O-])c1ccc(/C=N/Nc2cc(Cl)nc(-c3ccccc3)n2)cc1	-5	13	2	9	7	-12	5	-4	8	-8
C=CCN1CCN(C(CC(C)C)c2nnnn2CCOC)CC1 (centres undefined)	-5	14	13	19	1	5	4	10	-16	-5
Cc1ccc(NC(=O)C2CCN(S(=O)(=O)c3ccc4c(c3)NC(=O)C(C)S4)CC2)cc1Cl (centres undefined)	13	-20	1	32	-3	21	9	64*	18	47
O=C(CCl)N(c1ccc(Cl)cc1)c1c[nH]c2ccccc12	-44	-4	44	89*	14	27	-7	10	24	-78
Cc1nc2c(-c3ccc(Cl)cc3)c(C)[nH]n2c(=O)c1Cc1ccccc1	35	0	39	29	-6	46	8	32	-9	32
CCn1c2ccccc2c2cc(NC(=O)c3ccccc3-c3ccccc3C(=O)O)ccc21	9	-3	4	-17	2	-12	9	-18	-2	0
Cc1cccc(CNc2ncnc3ccc(-c4ccoc4)cc23)c1	39	-4	10	27	4	49	7	7	27	55*
CCCn1c(C)cc(C(=O)COC(=O)c2ccc[nH]c2=O)c1C	-10	15	-56	54*	-6	11	10	33	-1	72*
CCN1CCN(Cc2ccc(NC(=O)c3ccc(C)c(NC(=O)N4CCNC4=O)c3)cc2C(F)(F)F)CC1	15&-2&0	-16&2&-3	-12&14&-30	0&5&-3	6&-7&-12	-16&-15&1	-4&-9&-12	5&-3	21&6	12&3&0
CC(=O)Nc1ccc(OCC(O)CNC(C)C)cc1 (centres undefined)	-8	-3	-26	-1	4	10	-2	17	8	-4
Cn1c(=O)c2ncn(CC(=O)O)c2n(C)c1=O	11	0	-4	-4	10	-7	-8	5	-13	52*
CC(C)(C)c1ccc(C(=O)Nc2nnc(SCC(=O)NCC3CCCO3)s2)cc1 (centres undefined)	-94	-14	-131	94*	-4	-101	4	-48	-82	6
CC(C)c1nnc(NC(=O)c2ccc(N3C(=O)CCC3=O)cc2)s1	-29	-10	-30	3	6	-32	-8	-12	-48	-16
CC(=O)OCC(=O)[C@@]1(O)CC[C@H]2[C@@H]3CCC4=CC(=O)CC[C@]4(C)[C@H]3[C@@H](O)C[C@@]21C	-13&-10	3&-1	-9&8	-21&7	-10&-7	-68&-35	6&-10	-5&-44	-5&7	17&11
COCCCNC(=O)CN1C(=O)COc2ccc(S(=O)(=O)N3CCOCC3)cc21	3	5	-8	-10	6	20	-7	-21	12	1
COc1ccc2cc(-c3cc(C(=O)OCC(=O)NC4CCS(=O)(=O)C4)c4ccccc4n3)ccc2c1 (centres undefined)	-70	52*	-140	92*	-8	-34	2	-50	-44	-64
Cc1ccc2oc(C(=O)Nc3ccc(S(=O)(=O)Nc4onc(C)c4C)cc3)c(C)c2c1	-18	1	9	5	3	-16	-3	6	-19	-20
COc1ccc(/C=C/C(=O)OCC(=O)NCc2ccco2)cc1OC	-1	3	9	2	-6	18	0	0	-23	13
CC(C)(C)c1ccc(-c2noc(CCC(N)=O)n2)cc1	51	9	76*	24	0	59	-4	85*	83*	46
O=C(NCCCN1CCCCC1)c1ccc2c(c1)NC(=O)c1ccccc1S2	2	-10	6	-13	0	28	2	1	-18	16
O=C(c1cccs1)N1CC=C(c2ccccc2)CC1	-19	-3	-11	-3	13	-28	10	10	-29	-32
COc1ccc(OC)c2c1sc(=NC(=O)c1ccco1)n2C	-9	-1	8	4	3	-47	-2	4	2	-13
C/C(=N\Nc1ccc(C(F)(F)F)cc1[N+](=O)[O-])C(C)C	-3	-1	-1	17	-7	11	-5	-12	-3	4
CC(Sc1nc(-c2ccc(F)cc2)cs1)C(=O)N1c2ccccc2CC1C (centres undefined)	12	-4	-4	3	-3	12	5	3	-12	9
CCn1nnc2cc(C(=O)NCCc3ccccc3F)ccc21	-63	-34	-76	14	-9	-64	-3	-11	-20	31
OCCN(CCO)CC(O)COc1ccc(C23CC4CC(CC(C4)C2)C3)cc1 (centres undefined)	42	7	40	8	4	55	-2	87*	73*	47
CSc1nc(C)nc2c1c(=O)n(C)c(=O)n2C	0	/	10	-15	5	12	-8	-21	-3	-1
COCC(=O)N1CCC(Oc2ccc(C(=O)N3C[C@H]4CC[C@H]3C4)cc2)CC1	-7	1	-7	5	7	-1	3	-4	-14	9
OCc1cc(C(O)CNCCCCCCOCCCCc2ccccc2)ccc1O (centres undefined)	-16	-1	-22	17	-7	-13	-5	-48	-32	11
COC(=O)c1ccc2nc(-c3cccc(N)c3)cn2c1	-108	-3	-73	72*	-1	-22	-6	16	7	53*
CCCc1cc(=O)[nH]c(SCC(=O)NC2CCCCC2)n1	-16	10	21	-16	-14	9	-2	2	-6	11
O=C(O)c1cc(=O)c2c(OCC(O)COc3cccc4oc(C(=O)O)cc(=O)c34)cccc2o1	2	-12	-23	27	-5	-50	-3	-1	-6	5
COc1cccc(-c2nnc3sc(C4CCCCC4)nn23)c1	52	-2	7	11	1	37	-13	25	16	52*
Cc1ccc(C(=O)Nc2cccc(C(=O)O)c2)cc1S(=O)(=O)N1CCCCC1	-95	16	-184	32	-4	-77	4	/	/	-18
S=C1SCN(Cc2ccco2)CN1Cc1ccco1	-15	2	0	-26	-7	16	5	9	-9	-5
CCOC(=O)CNC(=O)CSc1nnc(NC(=O)c2ccc(C)cc2)s1	-65	5	-65	88*	2	-40	10	-34	-64	-1
Cn1c(=O)[nH]c(=O)c2c1nc(CN1CCOCC1)n2CCCc1ccccc1	14	-10	-30	6	8	-4	7	15	-14	0
CCN(CC)c1ccc(/C=N/Nc2nc(C)cc(=O)[nH]2)c(O)c1	81*	-8	33	49	-5	84*	-1	-2	46	2
COc1cc2c(cc1OC)C(c1ccc(-c3ccccc3Cl)o1)=NCC2	-47	-13	2	22	8	-10	6	21	-24	12
O=[N+]([O-])c1cc(/C=N\O)ccc1Oc1ccc(F)cc1	-29	-12	-1	2	-2	-8	0	1	-31	-24
CC(=O)NC(c1ccc(C(C)C)cc1)c1ccc2cccnc2c1O (centres undefined)	68*	0	90*	24	-3	82*	15	-25	35	14
COc1ccc(C(CNC(=O)Nc2ccccc2)N2CCN(C)CC2)cc1 (centres undefined)	-8	5	-9	1	-8	6	0	0	-5	-7
CC(C)CCNC(=O)C1CCN(S(=O)(=O)c2ccc3c(c2)CC(C)N3C(=O)C2CC2)CC1 (centres undefined)	15	20	8	-3	1	7	0	14	-6	-2

An excerpt, so the mix of outcomes need not match the whole.
